Bioassay records deposited in PubChem by several laboratories.
CSC inhib = cancer stem cell viability inhibitors, primary screen, luminescence | cancer stem cell-like cells viability | inhibition, % at 7.5 µM | actives 1.1% (n = 300,000);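 active = mean at 75% or more and at least half the replicates too; tested in HMLE shEcad cells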;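 also: 0% = median of negative and 100% = median of positive control wells; the first replicate is given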
Rce1 inh = yeast Rce1p protease inhibitors, primary screen, biochemical, fluorescence, cell-free homogeneous. CAAX prenyl protease 2 (Saccharomyces cerevisiae (strain ATCC 204508 / S288c)), Q03530. yeast membranes, quenched prenylated peptide cleavage fluorescence. calls only. actives 0.27% (n = 290,000). AID 2563, 2010;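 active = fall in fluorescence gain of 50% or more versus controls, with final raw signal at or below 3038400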;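 also: plate controls were neutral control wells for no effect and wells lacking membranes for full effect; tested at 10 µM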
Target sequence (Q03530 whole entry, looked up): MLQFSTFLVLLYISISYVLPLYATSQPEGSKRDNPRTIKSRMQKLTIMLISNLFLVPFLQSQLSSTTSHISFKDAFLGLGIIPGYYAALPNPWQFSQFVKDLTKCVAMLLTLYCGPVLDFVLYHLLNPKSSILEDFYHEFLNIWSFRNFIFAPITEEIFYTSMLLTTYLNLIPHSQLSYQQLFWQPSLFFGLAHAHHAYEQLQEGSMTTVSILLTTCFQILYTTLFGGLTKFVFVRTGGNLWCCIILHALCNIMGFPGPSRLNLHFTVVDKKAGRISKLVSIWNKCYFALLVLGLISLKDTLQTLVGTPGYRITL
PABP FP inh = PABP poly(A) RNA binding inhibitors, primary screen, biochemical, fluorescence polarization, uHTS. actives 1% (n = 290,000). Polyadenylate-binding protein 1 (Homo sapiens), P11940. inhibition, % at 35 µM;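 active = 50% or more with normal probe brightness, or confirmed in later tests; about a fifth of its hits are not listed in these tables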;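 also: calls also rest on retests at 20 µM and on dose response follow-up; controls were probe without protein and protein plus probe with vehicle; some compounds called inactive have numbers as strong as hits; many hits fall short of the cut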
Env fusion inh = inhibitors of HIV-1 Env-driven cell-cell fusion, primary screen, HeLa-JRFL effector, CEM21 target cells, luciferase; inhibition, % at 12.3 µM; actives 1.1% (n = 360,000);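 active = mean replicate inhibition score of at least 50 and every replicate individually at or above 50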;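 also: 0% = plate neutral controls and 100% = maraviroc near 300 nM; one replicate is shown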
Yeast UUG start = modulators of yeast start codon fidelity, primary screen, whole organism, S. cerevisiae, single point, plate reader | S. cerevisiae UUG-firefly luciferase reporter, luminescence/redox ratio | activity score, % at 18.7 µM | actives 0.13% (n = 350,000);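 active = replicate mean at a twofold rise or more, about +100% in these data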;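 also: firefly luciferase made from a UUG start codon reports start codon fidelity; reporter light over untreated wells divided by growth signal over untreated wells; some hits fall short of that in this replicate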
MT1-MMP act inh = blockers of MT1-MMP proenzyme processing, primary screen, HT1080 RFP-PRO-GFP cells, GFP/RFP fluorescence. Matrix metalloproteinase-14 (Homo sapiens), P50281. GFP/RFP ratio fluorescence, overnight; percent of plate control window, DMSO zero. GFP/RFP ratio change, % at 20 µM. actives 0.061% (n = 360,000). AID 651647, 2012;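 active = GFP/RFP ratio change of at least 30% with cell ATP level not reduced by more than half and red fluorescence within 50% of control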; also: strong numbers were not always called active
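Assay system: HT1080 RFP-PRO-GFP cells. Benchmarks: DMSO vehicle wells and RFP-L50D-GFP reporter cell wells. Times: overnight cell settling, then overnight compound exposure, 37 °C, 5% CO2. Compound: 20 µM single dose, 1% DMSO. Read-out basis: GFP/RFP fluorescence ratio.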
eIF4H FP inh = human eIF4H binding inhibitors, primary screen, translation initiation inhibitor project, biochemical, uHTS, fluorescence polarization; Eukaryotic translation initiation factor 4H (Homo sapiens), Q15056; inhibition, % at 35 µM; actives 0.94% (n = 290,000); eIF4H fluorescence polarization binding assay;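 active = 50% or more with normal probe brightness, or confirmed in later tests; about a fifth of its hits are not listed in these tables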;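 also: calls also rest on retests at 20 µM and on dose response follow-up; 0% = protein and probe with vehicle and 100% = probe without protein; strong numbers were not always called active; many hits fall short of the cut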
eIF4H FP inh retest = second read-out of eIF4H FP inh, no call of its own (marks repeat the call); inhibition, %; compound at 20 µM; confirmation average;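 mean of two retest wells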
PABP FP inh retest = also measured in PABP FP inh; calls as there; inhibition, %; compound at 20 µM; confirmation repeats;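 mean of two retest wells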
MT1-MMP act inh RFP = second read-out of MT1-MMP act inh, no call of its own (marks repeat the call); RFP signal change, %; measured here: RFP expression control read;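 0 = vehicle wells; hits needed this value within 50% of zero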
The depositor's hits bear a star; i = inactive; . = not tested or not shown. The list is partial; rates above refer to the full screens.

SMILES	CSC inhib	Rce1 inh	PABP FP inh	Env fusion inh	Yeast UUG start	MT1-MMP act inh	MT1-MMP act inh RFP	eIF4H FP inh	others
COc1ccc(NC(=O)c2ccc(NC(=O)CN3CCN(c4ccccc4OC)CC3)cc2)cc1	.	.	.	30	-29	-1	-15	.
CCc1c(C)nc2ncnn2c1Nc1ccc(C)cc1	15	i	1	28	-12	0	-4	1
CNCCC=C1c2ccccc2CCc2ccccc21	9	i	-4	5	-6	-2	-1	-10
O=C(CN(CCO)c1ccccc1)NC12CC3CC(CC(C3)C1)C2	-5	i	-17	.	-18	0	0	-4
CCOc1ccc(C/C(N)=N/n2cnnc2)cc1	-13	i	-8	.	-10	8	-1	-3
Cc1nc2c(n1C1CCCCC1)C(=O)c1ccccc1C2=O	1	i	4	-28	-3	1	4	-3
CC(=O)c1c(C)[nH]c(C(=O)OC(C)C(=O)Nc2cc(S(=O)(=O)N3CCCCC3)ccc2Cl)c1C (centres undefined)	.	i	2	23	-12	10	-5	11
CC(C)CCN=CC1=C(O)CC(c2ccccc2)CC1=O (centres undefined)	-14	i	0	-6	.	6	5	-4
CN1CCCC1CCNS(=O)(=O)c1ccc(Br)cc1 (centres undefined)	51	i	5	.	1	-3	3	8
CCOC(=O)c1c(-c2ccc(-c3ccccc3)cc2)csc1NC(=O)CCN1CCOCC1	105*	i	-6	46	-5	-12	-11	-4
C=CCNc1nc(-c2cccc(OC)c2O)nc2ccccc12	11	i	-12	-53	-7	-5	-5	-5
CN(C)CCNC(=O)C(=O)C1C(=O)Nc2ccccc21 (centres undefined)	0	i	-5	6	.	.	.	8
COc1ccc(N2CCN(C(CNS(=O)(=O)c3cccs3)c3cccnc3)CC2)cc1 (centres undefined)	-9	i	2	.	-9	-4	-5	8
COc1ccc(CNC(=O)CN2C(=O)NC3(CCCCCC3)C2=O)cc1	-14	.	.	-33	-13	2	3	.
CC1CN(Cc2ccccc2)c2nc3c(c(=O)[nH]c(=O)n3C)n2C1 (centres undefined)	-4	i	-1	6	.	0	4	-1
CCc1ccc(N(C(=O)c2csnn2)C(C(=O)NC2CCCC2)c2cccnc2)cc1 (centres undefined)	-2	i	12	-4	-9	-5	0	-6
CC(/C=C/c1ccccc1)=N/NC(=O)CNC(=O)c1ccc2c(c1)OCO2	-1	i	-13	.	.	5	6	-1
CC1=CC(C)(C)N(C(=O)CN2C(=O)CCC2=O)c2ccccc21	0	i	-6	-3	.	0	2	-1
CCCc1nc2sc3c(c2c(=O)n1NC(=O)CCC(=O)OC)CCCC3	-8	i	-2	-16	.	-6	-4	4
Cc1cccc(C(=O)OC(C)C(=O)Nc2ccc(S(=O)(=O)N3CCCC3)cc2)c1O (centres undefined)	-17	i	.	-4	-8	2	-3	.
COc1ccc(C(=O)n2c(SC)nc3cc4c(cc32)OCCO4)cc1	-7	.	7	-77	-8	8	2	-18
O=C(NNC(=O)c1ccc(F)cc1)c1ccncc1	-12	i	-6	1	0	-1	4	-8
O=[N+]([O-])c1ccc(NN=Cc2cccc3ccccc23)cc1	.	.	.	25	-13	-23	2	.
O=C(CCc1nc2ccccc2c(=O)[nH]1)OCC(=O)N1CCc2ccccc21	-3	i	0	-8	.	2	8	-2
CCOC(=O)c1[nH]c(C)c(CN(Cc2ccco2)C(=O)C(F)(F)F)c1C	-9	i	3	12	-6	-12	-12	0

The list goes on.
SMILES	CSC inhib	Rce1 inh	PABP FP inh	Env fusion inh	Yeast UUG start	MT1-MMP act inh	MT1-MMP act inh RFP	eIF4H FP inh	others
O=C1OC2(c3ccccc31)c1ccccc1-c1ccccc12	.	.	.	5	-10	-1	-1	.
COC(=O)CCC(=O)N(C)CC1CCCN(CCc2cccc(C(F)(F)F)c2)C1 (centres undefined)	0	i	6	12	7	-2	-2	5
COc1ccc(C(O)c2nc(-c3cccc(C(F)(F)F)c3)cs2)cc1 (centres undefined)	.	.	.	10	-6	4	-2	.
COC(=O)c1ccc(S(=O)(=O)NCc2ccco2)o1	3	i	3	-3	-17	1	2	0
O=C(CC(CC(=O)c1ccccc1)c1ccccn1)c1ccccc1	.	.	.	-18	7	-6	-5	.
COc1ccc(C(=O)c2cc3c(cc2[N+](=O)[O-])OCCO3)cc1	7	i	-5	2	.	-2	-2	7
COc1ccc(C(=O)NC(C)c2nnc(SCC(=O)Nc3nc(C)cs3)n2C)cc1 (centres undefined)	-6	i	2	-28	-2	0	0	-11
O=C(N/N=C/c1cccs1)c1ccc2ncccc2c1	0	i	5	-19	.	-1	0	-1
CC(=O)Nc1ccc(S(=O)(=O)Nc2ccccc2N2CCOCC2)cc1	14	.	.	-7	-7	2	0	.
Fc1ccc(N/N=C(/c2ccccc2)c2ccccn2)cc1	-2	i	-6	-38	.	-1	1	27
CC1=CC(C)(C)N2C(=O)C3(C(C#N)=C(N)Oc4cc(O)ccc43)c3c(C)c(C)cc1c32 (centres undefined)	44	i	-3	.	8	-3	-8	-9
Cc1ccc(CNS(=O)(=O)c2ccc(-n3cnnn3)c(C)c2)cc1	-8	i	8	17	-10	2	-2	1
c1ccc2sc(NC3=NCN(CCN4CCOCC4)CN3)nc2c1	-4	i	11	-1	.	2	2	10
CCC(c1nnc(SCC(=O)Nc2cc(C)on2)o1)N(C)C (centres undefined)	-5	.	.	.	-25	-3	4	.
CCOc1ccccc1NC(=O)COC(=O)c1cccc(-c2ccc(OC(C)=O)cc2)c1	14	i	7	-10	-24	-2	-1	-7
O=C(CC1C(=O)NCCN1C(=O)c1ccc(F)cc1)OCc1ccccc1 (centres undefined)	10	i	-11	.	-9	0	6	-4
Cc1ccc(S(=O)(=O)CCC(=O)NCc2ccccc2)cc1	-15	i	-4	6	.	0	6	-5
NC(=O)c1ccc(NC(=O)COC(=O)c2ccc(Cl)nc2)cc1	.	.	.	0	2	1	0	.
COc1ccc(CCNS(=O)(=O)c2cccs2)cc1	-15	.	6	-80	-15	-6	-2	-4
CC1CN(C(=S)SCCN2Cc3ccccc3C2=O)CC(C)O1 (centres undefined)	-7	i	0	.	.	5	3	3
COc1ccc(CNC(=O)CN2CCC(C(=O)c3ccc(OC)cc3)CC2)cc1	-12	i	2	10	14	2	-11	-4
O=C(c1ccccc1)c1ccc(C(=O)N2CCN(c3ccccc3O)CC2)cc1	.	.	.	-2	-8	-1	-3	.
C(=N\Nc1nc(-c2ccccc2)cs1)/c1cccs1	-8	i	10	-211	-22	7	-2	-10
COc1ccc(O)c(C2=Nc3ccccc3N=C(c3ccco3)C2)c1	-16	i	13	.	-19	-6	-15	16
COc1ccc(Cc2noc(CN3CCNC(=O)CC3)n2)cc1OC	-2	i	2	19	11	6	6	16

Entries shown so far that contain a halogen, in the order listed:
SMILES	CSC inhib	Rce1 inh	PABP FP inh	Env fusion inh	Yeast UUG start	MT1-MMP act inh	MT1-MMP act inh RFP	eIF4H FP inh	others
CC(=O)c1c(C)[nH]c(C(=O)OC(C)C(=O)Nc2cc(S(=O)(=O)N3CCCCC3)ccc2Cl)c1C (centres undefined)	.	i	2	23	-12	10	-5	11
CN1CCCC1CCNS(=O)(=O)c1ccc(Br)cc1 (centres undefined)	51	i	5	.	1	-3	3	8
O=C(NNC(=O)c1ccc(F)cc1)c1ccncc1	-12	i	-6	1	0	-1	4	-8
CCOC(=O)c1[nH]c(C)c(CN(Cc2ccco2)C(=O)C(F)(F)F)c1C	-9	i	3	12	-6	-12	-12	0
COC(=O)CCC(=O)N(C)CC1CCCN(CCc2cccc(C(F)(F)F)c2)C1 (centres undefined)	0	i	6	12	7	-2	-2	5
COc1ccc(C(O)c2nc(-c3cccc(C(F)(F)F)c3)cs2)cc1 (centres undefined)	.	.	.	10	-6	4	-2	.
Fc1ccc(N/N=C(/c2ccccc2)c2ccccn2)cc1	-2	i	-6	-38	.	-1	1	27
O=C(CC1C(=O)NCCN1C(=O)c1ccc(F)cc1)OCc1ccccc1 (centres undefined)	10	i	-11	.	-9	0	6	-4
NC(=O)c1ccc(NC(=O)COC(=O)c2ccc(Cl)nc2)cc1	.	.	.	0	2	1	0	.

(list continues)
SMILES	CSC inhib	Rce1 inh	PABP FP inh	Env fusion inh	Yeast UUG start	MT1-MMP act inh	MT1-MMP act inh RFP	eIF4H FP inh	others
CC(NC(=O)C1CCCCC1)c1ccc2c(c1)OCCO2 (centres undefined)	-16	i	-8	-12	.	0	0	-4
CCn1c(C)c(C)c2cc(C(=O)Nc3cccc(Cl)c3)ccc21	81*	i	0	.	.	5	-7	-2
CS(=O)(=O)Nc1ccc(C(=O)NCCSC2CCCCC2)cc1	3	i	2	.	.	2	0	5
CC(=C1C(=O)c2ccccc2C1=O)N1CCN(c2ccccn2)CC1	8	.	1	.	-19	0	7	7
O=C1CC(c2cccc(Cl)c2)CC(O)=C1C=NCCCO (centres undefined)	.	i	13	26	-13	-12	2	7
CCCCSc1ncc(C(=O)OCC)c(N)n1	6	i	-15	.	-26	-1	-4	3
Cc1nn(-c2cccc(Cl)c2)c(Cl)c1/C=N/NC(=O)c1cccnc1	-8	i	-15	-16	.	-3	-1	-13
O=C(O)c1cccc2sc3cc(Cl)ccc3c(=O)c12	-11	.	.	-8	-11	6	7	.
COC(=O)Cc1ccc(NC(=S)NC(C)(C)C)cc1	4	i	1	-8	.	1	4	4
O=C(NCc1cccnc1)c1cccc(S(=O)(=O)Nc2cccc(Cl)c2)c1	-15	.	.	43	-17	3	-13	.
Cc1cc2c(=O)n(C)c(SCC(=O)Nc3cccc(F)c3)nc2s1	5	i	3	-2	-9	2	-10	3
COc1ccccc1NC(=O)c1cnc2c(-c3ccccc3)c(C)nn2c1C	3	i	2	9	.	-1	3	-6
O=S1(=O)CCN(Cc2ccc(Cl)c(C(F)(F)F)c2)CC1	-10	i	-1	-13	.	-2	-1	-5
COc1ccc(/C(N)=N/OC(=O)CSc2ccc(C)cc2)cc1	6	.	-3	10	-19	1	-1	2
CC(=O)c1cccc(NC(=O)C2CC(=O)N(c3cccc(C)c3C)C2)c1 (centres undefined)	-12	i	-7	-11	16	6	3	3
CC(C)Cn1c(CCCNC(=O)c2ccc(F)cc2)nc2ccccc21	6	i	-1	-17	-17	-4	-3	-11
O=Cc1sc([O-])nc1-[n+]1ccc2ccccc2c1	-17	i	47	.	.	.	.	62	eIF4H FP inh retest=16;PABP FP inh retest=43
COc1ccc(NC(=O)CCCNC(=O)c2ccc(Cl)cc2)c(OC)c1	-3	.	2	0	-32	1	1	3
CC(C)CCNC(=O)CSc1nc2ccccc2c(=O)[nH]1	.	i	8	-22	-16	7	8	-9
